# From PubChem BioAssay
# H5N1 CPE = antiviral screen in MDCK cells, H5N1 avian flu; cytopathic effect, luminescence, 72 h; active compounds read high; no value below 0 was filed and about half of the inactive calls have no number; reference of the scale not given here; inhibition, % at 50 µM; hit rate 0.07% among 96,000; AID 740; in the data active = inhibition above about 25%
# Numbers without * were called inactive; i = inactive. These rows are one share of the data. The share of hits here may be higher or lower than overall.
cpd	SMILES	H5N1 CPE
1	O=C(CCNS(=O)(=O)c1ccc2c(c1)CCC(=O)N2)NCc1cccnc1	1.0
2	Cn1c(Cn2c(=O)sc3ccccc32)nnc1SCC(=O)Nc1ccc2c(c1)OCO2	2.0
3	CCN(CC)S(=O)(=O)c1cccc(C(=O)Nc2ccc(C#N)cc2)c1	1.2
4	Cc1cc(-c2nc3ccccc3o2)c2ccccc2n1	i
5	Cc1ccc(C(=O)Cn2c(N3CCOCC3)nc3c2c(=O)n(C)c(=O)n3C)cc1	0.6
6	CC(=O)C1=NOC(CNC(=O)c2c(-c3ccccc3Cl)noc2C)C1 (stereo not drawn)	0.4
7	c1ccc2c(CN3CCOCC3)c3ccccc3c(CN3CCOCC3)c2c1	1.7
8	O=c1c(C(c2ccc(O)cc2)c2c(O)nc3n(c2=O)CCS3)c(O)nc2n1CCS2	i
9	COc1cccc(NC(=O)COc2ccccc2C(N)=O)c1	i
10	CCOC(=O)c1[nH]c2ccc(OC)cc2c1NC(=O)CN1CCC2(CC1)OCCO2	i
11	Cc1ccc(C)c(NC(=O)c2nnn(Cc3ccccc3)c2N)c1	i
12	CCOC(=O)c1oc2cc(O)ccc2c(=O)c1-c1ccc(OC)cc1	0.2
13	CCCC(=O)Nc1nnc(CCN2CCCCC2)s1	0.1
14	COC(=O)c1sccc1N/N=C(\C)c1ccc(F)c(Cl)c1	2.9
15	Nc1nnc(CC(=O)N2CCCCC2)s1	0.3
16	CN(C)S(=O)(=O)c1ccc(/C(O)=C2/C(=O)C(=O)N(Cc3cccnc3)C2c2ccncc2)cc1 (stereo not drawn)	1.4
17	CCC1Oc2ccc(C)cc2N(CC(=O)NCCN2C(C)CCCC2C)C1=O (stereo not drawn)	i
18	O=C(O)CCCC(=O)Nc1ccc(Br)cc1	0.8
19	CC(C)n1cc(/C=C(\C#N)S(=O)(=O)c2ccccc2)c2ccccc21	4.4
20	CCOC(=O)c1[nH]c(C)c(C(=O)NCc2ccccn2)c1C	i
21	CCOC(=O)c1c(-c2ccccc2)csc1NC(=O)CSc1nnnn1C	i
22	N#C/C(=C/c1ccc(N2CCCCC2)o1)c1cccc(F)c1	i
23	COc1ccc(/C=c2\sc3nc(-c4ccccc4OC)nn3c2=O)c(OC)c1	1.2
24	CCCCNC(=O)c1cc2n(n1)C(C(F)(F)F)CC(c1ccccc1)N2 (stereo not drawn)	0.1
25	CCOC(=O)C1=C(c2ccccc2)NC(=S)NC1C (stereo not drawn)	i
26	CCC(=O)Nc1nc2ccccc2n1Cc1ccccc1	0.2
27	CC(C)CCOCc1nc2sc3c(c2c(=O)[nH]1)CCC(C)C3 (stereo not drawn)	1.0
28	O=c1[nH]cnc2scc(-c3ccsc3)c12	i
29	CCCCc1nc2ccccc2c(=O)n1-c1ccc(Cl)cc1[N+](=O)[O-]	i
30	O=C(O)C1C2CCC(C2)C1C(=O)NCc1ccccn1 (stereo not drawn)	i

# Looked up by structure from above (2):
cpd	SMILES	H5N1 CPE
19	CC(C)n1cc(/C=C(\C#N)S(=O)(=O)c2ccccc2)c2ccccc21	4.4
29	CCCCc1nc2ccccc2c(=O)n1-c1ccc(Cl)cc1[N+](=O)[O-]	i

# More structures:
cpd	SMILES	H5N1 CPE
31	CCOC(=O)/C(N=Nc1c(Br)cc(Br)cc1Br)=C(\C)O	0.2
32	O=C(CCCc1cccs1)N1CCN(S(=O)(=O)c2ccccc2Br)CC1	i
33	CCCS(=O)(=O)N1CCCC(C(=O)NCCCN2CCCC2=O)C1 (stereo not drawn)	i
34	Nc1ccc(NC(=O)c2cccs2)c(Cl)c1	0.3
35	Cc1nc(NCCCn2ccnc2)c2ccccc2n1	i
36	CCOC(=O)c1nc(C)n(-c2cc(Cl)ccc2Cl)n1	0.7
37	Cc1ncoc1C(=O)Nc1ccc2c(c1)OCCO2	i
38	CCOC(=O)C1CCN(C(=O)Cc2cccs2)CC1	i
39	CCCc1ccc(OCc2ccc(C(=O)N/N=C/c3cccc([N+](=O)[O-])c3)o2)c(OC)c1	i
40	COc1cc(C(=O)Nc2ccc(-c3nnc(-c4ccco4)o3)cc2)cc(OC)c1OC	i
41	COc1ccc(S(=O)(=O)N(CC(=O)N2CCN(C)CC2)c2ccc(C)cc2)cc1OC	0.1
42	COc1ccc(C2CC(c3ccccc3)Nc3nc(N)nn32)cc1 (stereo not drawn)	i
43	Cc1ccc(-c2csc(N(C)C(=O)c3c(C)nn(-c4ccccc4)c3Cl)n2)cc1	i
44	O=C(Nc1nccs1)c1cc(N2CCOCC2)nc2ccccc12	0.2
45	Cc1cccc(Cn2c(C(C)(C)C)cc3cccnc32)c1	i
46	CSc1ccc(S(=O)(=O)Nc2ccc3c(c2)OCCO3)cc1	1.9
47	Cc1ccc(NC(=O)CC2Oc3ccccc3NC2=O)c(C)c1 (stereo not drawn)	i
48	COc1ccc(C(N)CCc2ccco2)cc1 (stereo not drawn)	i
49	O=C(CCn1c(=O)oc2ccccc21)n1c(=O)oc2ccccc21	0.7
50	Cc1c(C(=O)OCC(C)(C)CN(C)C)oc2ccccc12	i
51	O=C(CN1CCN(c2ccc(F)cc2)CC1)NCC1CCCO1 (stereo not drawn)	0.0
52	Cc1nc([N+](=O)[O-])c(Br)n1CC(=O)c1ccc2ccccc2c1	5.1
53	CCOc1ccc(-n2c(Cc3cc(=O)[nH]c(=O)[nH]3)nnc2SC(C)C(=O)OC)cc1 (stereo not drawn)	1.4
54	CC(=O)Nc1nnc(-c2ccc3c(c2)CCCC3)o1	0.6
55	COCCNC(=O)c1ccc(CS(=O)(=O)c2ccccc2)o1	i
56	O=S(=O)(NCc1cccnc1)c1ccccc1	1.4
57	Cc1cc(C)n(CC(O)Cn2ccc3ccccc32)n1 (stereo not drawn)	0.3
58	Cc1ccc(S(=O)(=O)C2(C(=O)NC3CCCC3)CC2)cc1	0.1
59	Cc1cccc(NC(=O)Nc2cc(C)on2)c1	i
60	O=C(c1ccc2c(c1)OCO2)N1CCN(c2ccc(F)cc2)CC1	0.4

# The final four compounds of the part above open the next one.
cpd	SMILES	H5N1 CPE
57	Cc1cc(C)n(CC(O)Cn2ccc3ccccc32)n1 (stereo not drawn)	0.3
58	Cc1ccc(S(=O)(=O)C2(C(=O)NC3CCCC3)CC2)cc1	0.1
59	Cc1cccc(NC(=O)Nc2cc(C)on2)c1	i
60	O=C(c1ccc2c(c1)OCO2)N1CCN(c2ccc(F)cc2)CC1	0.4
61	Cc1ccc(OCCN2CCN(C(=O)CCC(=O)Nc3nnc(C)s3)CC2)cc1	0.1
62	COc1ccc2nc(C)cc(Nc3ccc(N4CCOCC4)cc3)c2c1	i
63	Cc1cc(=O)[nH]c(SCCOc2cccc(C(F)(F)F)c2)n1	0.7
64	CSc1ccc(Cl)c(C(=O)NCCOc2cc(C(C)C)ccc2C)c1	i
65	CCN(CC)CCCn1c(=S)[nH]c2ncccc2c1=O	0.5
66	O=C(Nc1cccnc1)C1CCCN(S(=O)(=O)c2cccc3nsnc23)C1 (stereo not drawn)	0.3
67	COc1cccc(OCc2cc(/C=N/NC(=O)c3ccn[nH]3)ccc2OC)c1	i
68	Cc1ccc2c(c1)C=CC(C)N2C(=O)c1ccccc1 (stereo not drawn)	1.5
69	CN(C)/C=N/c1c(C#N)cnn1-c1nc2ccccc2s1	i
70	Cc1nn(C(C)C(=O)N2CCN(c3ccccn3)CC2)c(=O)c2cc3occc3n12 (stereo not drawn)	0.8
71	O=C(Cc1ccc(Cl)cc1)Nc1ccc(-c2nnc(-c3ccco3)o2)cc1	i
72	O=C(OCn1cncn1)c1ccc(Cl)cc1Cl	i
73	CCOc1ccc(OCC)c(N=c2oc3c(C)ncc(CO)c3cc2C(N)=O)c1	0.7
74	CCC(c1nnnn1Cc1ccco1)N1CCN(c2cc(Cl)ccc2C)CC1 (stereo not drawn)	i
75	O=C(O)C1CC(=O)N(c2ccc3c(c2)OCCO3)C1 (stereo not drawn)	0.4
76	Cc1cccc2sc(NC(=O)C3CCCO3)nc12 (stereo not drawn)	0.7
77	COC(=O)c1ccccc1NC(=O)c1ccccc1N(C)S(C)(=O)=O	0.8
78	CCOc1ccccc1CNC(=O)CCN1C(=O)COc2ccccc21	i
79	Cc1ccc(-n2nc3c(c2NC(=O)c2ccccc2Br)CS(=O)C3)cc1 (stereo not drawn)	i
80	CC(c1nnc(SCC(=O)N2CCc3ccccc32)n1-c1ccc(Cl)cc1)N(C)C (stereo not drawn)	1.1
81	CC1(C)CC(=O)C(C2(O)C(=O)N(Cc3ccccc3)c3ccccc32)CO1 (stereo not drawn)	i
82	Cc1cc(C)n(/N=C/c2ccccc2)c(=O)c1C#N	1.1
83	Cc1ccc2nc(NC(=O)CCNS(=O)(=O)c3ccc(Br)s3)sc2c1	i
84	N#Cc1cc(C(=O)c2cc(Cl)ccc2O)cn(CC2CCCO2)c1=O (stereo not drawn)	6.1
85	COC(=O)c1ccc(C(=O)Nc2cc(Cl)ccc2Cl)cc1NC(=O)c1ccccc1C	0.0
86	Cc1ncsc1C(=O)Nc1nc2c(s1)CCCC2	i
87	COc1ccc(CN2CCOCC2)c(C)c1C	i
88	CCOC(=O)C(C)On1c(-c2ccccc2)nc2ccc([N+](=O)[O-])cc21 (stereo not drawn)	2.1
89	CCCCn1c(SCC(=O)Nc2nnc(CC)s2)nc2ccccc2c1=O	2.8
90	CC1(C)Cc2ccccc2-c2n[nH]c(=S)n21	i

# From compound 76 up to 79, as listed above:
cpd	SMILES	H5N1 CPE
76	Cc1cccc2sc(NC(=O)C3CCCO3)nc12 (stereo not drawn)	0.7
77	COC(=O)c1ccccc1NC(=O)c1ccccc1N(C)S(C)(=O)=O	0.8
78	CCOc1ccccc1CNC(=O)CCN1C(=O)COc2ccccc21	i
79	Cc1ccc(-n2nc3c(c2NC(=O)c2ccccc2Br)CS(=O)C3)cc1 (stereo not drawn)	i

# The list goes on:
cpd	SMILES	H5N1 CPE
91	O=S(=O)(c1ccccc1)C1(S(=O)(=O)c2ccccc2)CCCC1	i
92	CCOC(=O)C1CCCN(C(=O)C2CCC(CNS(=O)(=O)c3ccc(NC(C)=O)cc3)CC2)C1 (stereo not drawn)	1.1
93	CN(C)S(=O)(=O)c1cccc(CSc2cccc[n+]2[O-])c1	1.7
94	CCCCC(=O)Nc1ccc(C(=O)Nc2ccc3c(c2)OCO3)cc1	0.5
95	Cc1ccc(N=Nc2c(O)[nH]c(=O)[nH]c2=O)c([N+](=O)[O-])c1	i
96	O=C(CCS(=O)(=O)c1ccc(Br)s1)NCc1cccs1	0.0
97	CN(C)CCCN1C(=O)C(O)=C(C(=O)c2cc3ccccc3o2)C1c1ccccc1 (stereo not drawn)	i
98	O=C(CCn1cccc1)NCc1ccc(Cl)cc1	0.6
99	CCCCN(CCCC)C(=O)CCS(=O)(=O)c1ccc2c(c1)n(C)c(=O)c(=O)n2C	6.6
100	N#CC1=C(SCC(=O)c2ccc(Cl)cc2)NC2=C(C(=O)CCC2)C1c1ccco1 (stereo not drawn)	i
101	Cn1cc(C(=O)NC2CCCCC2)c(=O)c2cc(S(=O)(=O)N3CCCC3)ccc21	0.7
102	Cc1nc(-c2cn[nH]c2)c2cc(C)oc2n1	i
103	O=C(C1CC1)N1CCN=C1SCc1cccc(C(F)(F)F)c1	0.4
104	CCCNC(=O)c1c(N)n(-c2ccc(S(N)(=O)=O)cc2)c2nc3ccccc3nc12	i
105	COc1ccccc1NC(=O)C1=C(C)NC(=O)NC1c1ccc(C)cc1 (stereo not drawn)	i

# Given as labelled records: entries from further up
102: Cc1nc(-c2cn[nH]c2)c2cc(C)oc2n1
  H5N1 CPE = i
103: O=C(C1CC1)N1CCN=C1SCc1cccc(C(F)(F)F)c1
  H5N1 CPE = 0.4

# Next section
cpd	SMILES	H5N1 CPE
106	Cc1cc2nc(-c3ccc(SCc4ccccc4C#N)nc3)[nH]c2cc1C	i
107	CC1CC(C)(C)CC2(C1)NC(=O)N(CC(=O)NCC(c1ccco1)N1CCCCC1)C2=O (stereo not drawn)	i
108	CCN(CC)S(=O)(=O)c1cccc(C(=O)OCC(=O)Nc2ccccc2OC(F)F)c1	i
109	Fc1ccccc1Cn1nnc2c(NCc3ccccn3)ncnc21	i
110	O=C(O)c1cnn2c(C(F)F)cc(C3CC3)nc12	i
111	Cc1cc(NC(=O)c2cc(Cl)ccc2Cl)no1	1.9
112	Cc1ccc(CC2C(=O)N(c3ncccn3)C(=O)C2C)cc1 (stereo not drawn)	i
113	Cc1ccc(-c2nnc(SC(C)C#N)n2N)cc1 (stereo not drawn)	1.0
114	CC(C)(C)C1=NN(C(=O)c2ccccc2)C(O)(C(C)(C)C)C1 (stereo not drawn)	0.8
115	CC(CC1CC(C)(C)OC1=O)C(=O)Nc1nncs1 (stereo not drawn)	i
116	Cc1cc(C)n(-c2nc(C)nc3c2cnn3-c2ccccc2)n1	i
117	COc1ccc(C(C#N)Nc2ccccc2)cc1 (stereo not drawn)	i
118	COc1cc2c(OC)cccc2cc1C(=O)O	i
119	C=CCSc1cc(C)nc2c(-c3ccc(Cl)cc3)c(C)nn12	0.4
120	O=c1[nH]ncn2cccc12	i
121	NC(=O)C1CCN(C(=O)CSCc2ccccc2Cl)CC1	i
122	COc1cc(OC)cc(C(=O)OCC(=O)Nc2ccc(N3CCCCC3)cc2)c1	0.4
123	CC(=O)Nc1ccc(S(=O)(=O)NNC(=O)COc2cccc(C)c2)cc1	i
124	O=C(Nc1ccncc1)c1cncc(Br)c1	0.5
125	Fc1ccc(CSc2nc3ncc(Br)cc3[nH]2)cc1	i
126	COc1ccc(-c2nc(CSCC(=O)N3CCC4(CC3)OCCO4)c(C)o2)cc1OC	i
127	Cc1ccc(C(=O)Oc2ccc(Cl)c3cccnc23)cc1[N+](=O)[O-]	0.0
128	CCCCNc1ncnc2c1cnn2-c1ccc(C)cc1C	i
129	COC(=O)c1cc(Br)c(=O)n(-c2ccccc2F)c1	i
130	Brc1ccc(Nc2c3c(nc4ncnn24)CCC3)cc1	15.0
131	COc1ccccc1Oc1ccc2c(c1)C(=O)N(c1ccc(C)cc1)C2=O	0.1
132	Cc1ccc(C)c(N2CCN(C(=O)CCCOc3cc(=O)n(C)c4ccccc34)CC2)c1	i
133	COC(=O)Cc1nc2ccccc2[nH]1	0.3
134	CC(C)c1ccc(NC(=O)C2C3C=CC4(CN(CCCN5CCOCC5)C(=O)C24)O3)cc1 (stereo not drawn)	i
135	NC(=O)C1CCN(c2nc(-c3ccccc3)nc3ccccc23)CC1	i
